HNF4A DNA FP – change in binding of human HNF4 alpha to DNA; hit rate 0.3% among 360,000; HNF4a-FITC DNA binding, fluorescence polarization, 1 h; activity change, % at 10 µM; P41235; in the data active = activity change above about 30%, passing the limit was not always enough;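 also: controls were the assay level and a saturating level of protein; the project sought stronger binding though the title names inhibitors; some compounds called inactive have numbers as strong as hits; positive values seem to mean higher polarization but the record does not say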
Target sequence (P41235 whole entry, looked up): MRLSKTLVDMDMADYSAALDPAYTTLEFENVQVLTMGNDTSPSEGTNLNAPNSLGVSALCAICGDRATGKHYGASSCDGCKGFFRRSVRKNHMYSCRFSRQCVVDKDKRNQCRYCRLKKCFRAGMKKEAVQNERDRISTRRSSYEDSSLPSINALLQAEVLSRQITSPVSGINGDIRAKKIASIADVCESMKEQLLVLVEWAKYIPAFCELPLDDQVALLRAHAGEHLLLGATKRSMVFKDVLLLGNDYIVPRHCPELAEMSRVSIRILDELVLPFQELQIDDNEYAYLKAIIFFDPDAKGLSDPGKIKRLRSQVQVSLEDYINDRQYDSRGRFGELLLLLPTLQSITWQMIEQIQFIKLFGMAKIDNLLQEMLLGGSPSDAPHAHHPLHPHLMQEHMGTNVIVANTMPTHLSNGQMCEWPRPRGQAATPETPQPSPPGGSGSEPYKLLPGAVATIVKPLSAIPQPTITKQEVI
LANA-H2A inh – blocks KSHV LANA binding to histone H2A/H2B; AID 2629; Q9QR71; hit rate 0.6% among 320,000; cell-free LANA-H2A/H2B peptide, fluorescence polarization; inhibition, % (concentration not given with the values); in the data active = inhibition mostly above about 10%, no sharp cut-off; inactive = mostly below about 6.7%;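 also: stock transfer was 7.5 nL into about 10 µL; 0% = median of vehicle wells and 100% = median of positive control wells; one replicate is shown; the record names a cut of 25% in any replicate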
Vif TR-FRET – inhibitors of Vif binding to APOBEC3G peptide, primary screen, biochemical, TR-FRET, GST-Vif 1-94, biotin-A3G peptide, dose response retest (AID 1117319). TR-FRET GST-Vif / biotin-A3G peptide binding; higher % means a stronger effect; test concentration not given here; strong numbers were not always called active. inhibition, %; hits with a dose series show IC50 in µM. hit rate 0.57% among 260,000;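 active = above the screen mean plus three standard deviations and confirmed in dose response; inconclusive = results disagree or hit not tested in dose response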;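 also: Vif residues 1-94 fused to GST binding biotinylated APOBEC3G peptide 110-148; 0% = full assay without inhibitor and 100% = GST in place of GST-Vif; retest series ran down from 100 µM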
ALR H2O2 inh – blocks human ALR sulfhydryl oxidase activity | inhibition, % (test concentration not listed) | P55789 | purified ALR, DTT oxidation, H2O2 HRP-luminol luminescence | AID 485317 | hit rate 3.8% among 290,000;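 active = mean and each replicate at 75% or more; inconclusive = only one of the two met; inactive = neither met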;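 also: stock transfer was 7.5 nL into about 7.5 µL; 0% = neutral wells and 100% = wells with inactivated enzyme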
Target sequence (P55789 whole entry, looked up): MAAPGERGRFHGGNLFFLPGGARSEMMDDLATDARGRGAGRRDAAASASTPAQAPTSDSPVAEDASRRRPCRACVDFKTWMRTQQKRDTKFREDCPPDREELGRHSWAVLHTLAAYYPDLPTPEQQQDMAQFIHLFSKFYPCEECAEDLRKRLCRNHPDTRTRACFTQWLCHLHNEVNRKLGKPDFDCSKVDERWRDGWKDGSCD
RanGTP-Imp inh – inhibitors of RanGTP-importin-beta interaction, primary screen, biochemical, FRET, CFP-Ran, YFP-importin-beta, homogeneous; cell-free CFP-Ran/YFP-importin-beta FRET ratio; hit rate 1.1% among 300,000; inhibition, % (concentration not given with the values);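 active = most replicates above 15%; inconclusive = exactly half above 15%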;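 also: 0% = DMSO wells and 100% = Ran loaded with GDP instead of GTP; wells of about 40 µL received 100 nL stock; the first replicate is given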
B2AR ag – agonists of human beta-2 adrenergic receptor inducing internalization | P07550 | response, % (test concentration not listed) | Am2.2-beta2AR cells, FAP receptor internalization, flow cytometry; reference of the scale not given here | hit rate 0.43% among 340,000;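 active = response above a set limit, near 3 SD of response in nonfluorescent compounds, cut at about 42% in these data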;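 also: stock transfer was 100 nL into about 11 µL; a reference agonist was the positive control; negative values mostly stem from fluorescent compounds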
Target sequence (P07550 whole entry, looked up): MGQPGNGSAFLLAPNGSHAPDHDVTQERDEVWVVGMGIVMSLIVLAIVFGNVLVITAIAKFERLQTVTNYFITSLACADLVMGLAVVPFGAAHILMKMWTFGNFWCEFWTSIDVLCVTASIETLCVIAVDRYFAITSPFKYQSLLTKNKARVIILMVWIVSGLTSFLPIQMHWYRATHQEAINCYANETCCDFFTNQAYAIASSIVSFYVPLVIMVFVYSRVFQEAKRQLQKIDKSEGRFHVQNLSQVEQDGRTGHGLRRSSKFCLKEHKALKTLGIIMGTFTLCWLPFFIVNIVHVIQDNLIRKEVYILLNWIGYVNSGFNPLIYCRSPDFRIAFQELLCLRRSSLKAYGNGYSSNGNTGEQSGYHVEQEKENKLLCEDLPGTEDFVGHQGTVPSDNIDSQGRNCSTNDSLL
Calb FLC – affects C. albicans growth with fluconazole; C. albicans CaCi-2 (fluconazole-resistant clinical isolate) + fluconazole, Alamar Blue growth, 48 h; growth inhibition, % (concentration not given with the values); hit rate 0.57% among 300,000; AID 1979;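 active = most replicates above 75%; inconclusive = exactly half above 75%; inactive = most below 75%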;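 also: all wells also contain fluconazole at 8 µg/ml as a sub-toxic cotreatment; 0% = median of DMSO wells and 100% = median of geldanamycin control wells; wells of about 8 µL received 7.5 nL stock; the first replicate is given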
Numbers without * were called inactive; u = inconclusive; x = not tested or not shown.

SMILES | HNF4A DNA FP | LANA-H2A inh | Vif TR-FRET | ALR H2O2 inh | RanGTP-Imp inh | B2AR ag | Calb FLC
CC(Sc1nc(N)cc(=O)[nH]1)C(=O)N1CCOCC1 (configuration not stated) | 1.8 | x | -4% | x | x | 3 | x
COc1ccc(C2C(C#N)=C(N)N(N(C)C)C3=C2C(=O)CC(C)(C)C3)cc1OC (configuration not stated) | 2.4 | 5.3 | x | -5 | -3.5 | -6 | -8
O=C(N/N=C/c1c[nH]c2c1ccc1ccccc12)c1ccc([N+](=O)[O-])cc1 | 0.9 | 6.0 | 24% | -8 | u | -1 | 11
COc1ccc(C=O)c(OC)c1 | -1.2 | 12* | -3% | 3 | -2.7 | 2 | -16
O=S(=O)(Nc1ccccc1N1CCCCC1)c1cccs1 | 4.0 | -2.9 | 4% | x | -1.1 | -1 | -1
C=CCn1c(Cc2ccc(OC(C)C)c(Cl)c2)nnc1SCC(N)=O | 2.9 | -12 | 2% | 0 | -0.4 | -2 | -4
Cc1nc(SCc2nc3ccccc3[nH]2)c2oc3ccccc3c2n1 | -1.2 | -0.5 | 0% | -4 | 0.7 | -10 | 28
CCOC(=O)c1cn2nc(SCc3ccccc3)nc2nc1C | -3.4 | -2.7 | x | -10 | -2.3 | -6 | 25
Cc1nc(CCNS(=O)(=O)c2cccnc2)cs1 | 6.3 | 3.4 | 28% | -8 | -3.9 | -1 | 2
Nn1c(SCC(=O)Nc2ccc3c(c2)OCCO3)nnc1C(F)(F)F | -0.6 | -4.9 | -3% | -7 | 2.4 | -10 | -1
N#Cc1ccccc1OCC(=O)Nc1nnc(C2CC2)s1 | -2.9 | -0.2 | 0% | 2 | x | 0 | x
CC(NC(=O)CN(C)Cc1nc2ccccc2c(=O)[nH]1)c1ccccc1 (configuration not stated) | -0.1 | 4.6 | 76% | x | -1.1 | -4 | -5
COc1ccc(OCC(O)CNS(=O)(=O)c2cccc(Cl)c2)cc1 (configuration not stated) | 4.6 | 0.9 | 8% | x | 7.8 | 3 | -6
O=C(O)C1C(c2ccccc2)C(C(=O)N2CCOCC2)C1c1ccccc1 (configuration not stated) | 2.6 | 0.5 | 29% | 0 | 4.0 | -3 | -10
CCCN(C(=O)CSc1nnc(-c2ccoc2C)n1N)C1CCS(=O)(=O)C1 (configuration not stated) | -0.4 | -2.8 | 3% | x | 2.9 | 8 | -13
COC(=O)c1ccc(/C=N/N2C(C)CCCC2C)cc1 (configuration not stated) | 1.7 | -5.9 | u | 0 | 0.5 | 5 | -12
CCOC(=O)C1=C(C)Nc2nc(SCC)nn2C1c1ccc(OC)cc1 (configuration not stated) | -0.3 | -2.9 | -5% | 0 | 0.8 | 2 | -9
CCOC(=O)c1ccc(NS(=O)(=O)c2ccc3c(c2)NC(=O)CCS3)cc1 | -1.8 | -1.2 | x | -10 | u | 5 | 2
O=C(Nc1ccc(C(=O)O)cc1)Nc1cccc([N+](=O)[O-])c1 | -1.2 | 2.0 | -4% | 48 | -0.5 | 1 | -13
C/C=C(\C)CN1CCC(n2nccc2NC(=O)CCc2ccccc2)CC1 | 1.1 | 3.3 | -2% | -2 | -1.0 | 4 | -6
CCOc1cc(/C=C2\NC(=O)NC2=O)ccc1OC(C)C(=O)O (configuration not stated) | 1.4 | -7.5 | -7% | 1 | 2.4 | 5 | 4
CC1=C(C(=O)Nc2ccc(C)cc2C)C(c2cccc([N+](=O)[O-])c2)n2nc(C(=O)OC(C)C)nc2N1 (configuration not stated) | -2.1 | 6.1 | -5% | -3 | 2.6 | -5 | -12
COc1cccc(/C=N/n2nnc3c(cnn3-c3ccccc3)c2=O)c1 | -2.0 | -3.2 | u | -1 | x | 3 | x
COc1ccc(C(=O)SC2=NCCS2)cc1OC | 0.1 | 1.2 | 16% | 47 | 0.9 | 2 | u
COc1ccc([C@H]2/C=C\CN(S(C)(=O)=O)[C@@H](C)C(=O)N2Cc2ccc(F)cc2)cc1 | 2.7 | 1.6 | x | 18 | -1.9 | -1 | -6

Profiles from above:
Record of `COc1cccc(/C=N/n2nnc3c(cnn3-c3ccccc3)c2=O)c1` → HNF4A DNA FP: -2.0; LANA-H2A inh: -3.2; Vif TR-FRET: u; ALR H2O2 inh: -1; RanGTP-Imp inh: x; B2AR ag: 3; Calb FLC: x
Record of `O=C(O)C1C(c2ccccc2)C(C(=O)N2CCOCC2)C1c1ccccc1` (configuration not stated) → HNF4A DNA FP: 2.6; LANA-H2A inh: 0.5; Vif TR-FRET: 29%; ALR H2O2 inh: 0; RanGTP-Imp inh: 4.0; B2AR ag: -3; Calb FLC: -10
Record of `CCOc1cc(/C=C2\NC(=O)NC2=O)ccc1OC(C)C(=O)O` (configuration not stated) → HNF4A DNA FP: 1.4; LANA-H2A inh: -7.5; Vif TR-FRET: -7%; ALR H2O2 inh: 1; RanGTP-Imp inh: 2.4; B2AR ag: 5; Calb FLC: 4

The list goes on:
SMILES | HNF4A DNA FP | LANA-H2A inh | Vif TR-FRET | ALR H2O2 inh | RanGTP-Imp inh | B2AR ag | Calb FLC
CC1CCc2c(sc(N)c2C(N)=O)C1 (configuration not stated) | 5.1 | -2.7 | 25% | -23 | -0.8 | 10 | 3
CCOc1ccccc1NC(=O)Nc1ccncc1 | -0.2 | -4.4 | -2% | -2 | 2.3 | 9 | -3
CN1C(=O)CSC1=Nc1cccc(C(=O)O)c1 | 0.1 | -0.7 | -5% | 1 | 6.5 | 4 | -2
COc1ccccc1NC(=O)Nc1ccc(-n2ccc(C(F)(F)F)n2)cc1 | 2.8 | -0.7 | -9% | 13 | -1.2 | 11 | 0
COc1c(O)cccc1[C@H](O)C1CCN(CCc2ccc(F)cc2)CC1 | -8.8 | 2.4 | x | 10 | -49 | 2 | 6
Cc1ccc(C)c(/C=C2\CCn3c2nc2cc(C(=O)O)ccc2c3=O)c1 | -0.5 | 2.8 | 3% | x | -1.3 | 14 | 15
CC(=O)N/C(=C\c1ccccc1)C(=O)OCCCOC(=O)/C(=C/c1ccccc1)NC(C)=O | -4.4 | 12 | x | -11 | -1.3 | 0 | -10
COC(=O)CCC(=O)NC(=S)Nc1sc(C)c(C)c1C(N)=O | -3.1 | -4.5 | 2% | -2 | 4.7 | 18 | 4
COc1ccc(OCCSc2nnc(-c3cccnc3)n2N)cc1 | 0.7 | -3.7 | x | -14 | 0.4 | 9 | 4
Cc1ccc(C(c2sc3nc(C)nn3c2O)N2CCN(CCO)CC2)cc1 (configuration not stated) | 1.2 | -3.9 | x | 1 | -0.2 | -7 | 0
CSc1nsc(SCC(=O)Nc2ccc(OC(C)=O)cc2)n1 | -3.4 | 2.3 | x | 36 | -3.8 | 2 | 7
NNc1nc2sc3c(c2c(=O)n1C1CCCCC1)CCN(Cc1ccccc1)C3 | 1.3 | 1.2 | 3% | -16 | 28* | 7 | -4
COc1c(F)cc2[nH]c3c(c2c1F)CCNC3=O | 0.5 | -3.6 | x | -5 | u | -9 | -5
CCC(C)NCCCOc1ccc(Cl)cc1C(C)(C)C (configuration not stated) | 1.7 | 2.5 | u | 2 | 1.2 | 8 | 4
O=C(COc1ccccc1)NCC(=O)N/N=C/c1cccs1 | -3.6 | 55* | x | -6 | 1.4 | 2 | -3
O=C(O)CCNC(=S)Nc1cccc(F)c1 | 0.8 | -2.4 | 3% | -19 | 2.1 | -2 | 4
COc1ccc(-c2csc(Cc3nnc(N4CCOCC4)n3-c3ccccc3)n2)cc1 | -1.1 | -0.4 | 0% | -6 | -6.1 | -4 | 31
CCCCOP(=O)(OCCCC)C(O)c1ccc(F)cc1 (configuration not stated) | 0.4 | 1.5 | -2% | 2 | -0.7 | 14 | 5
O=C(Nc1ccccc1N1CCCC1)c1ccc(Cl)cc1Cl | 1.3 | -2.7 | 4% | 15 | -2.4 | -7 | 0
CC1CN(c2ccc(S(=O)(=O)N3CCCC3)cn2)CC(C)O1 (configuration not stated) | 3.3 | 1.6 | 4% | 1 | -0.1 | -6 | -1
Cc1ccccc1-c1noc(-c2ccccc2C(=O)N2CCCC2)n1 | -1.0 | 2.6 | -4% | x | 6.6 | 0 | -7
CCc1cc(C(=O)N/N=C/c2ccc(O)cc2O)c2ccccc2n1 | 2.0 | 3.5 | x | 83* | u | -2 | 7
O=C(O)C1CC=CCC1C(=O)NCc1ccccc1 (configuration not stated) | 0.5 | 1.7 | 14% | 3 | 4.7 | -1 | 10
CCc1ccccc1NC1c2ccccc2C(=O)N1Cc1ccco1 (configuration not stated) | 6.4 | 3.3 | 2% | 13 | -2.1 | 12 | -3
Cc1cccc(Nc2nc(N3CCOCC3)nc(N3CCOCC3)n2)c1 | 2.5 | -3.1 | -3% | 6 | -0.7 | 11 | 25
(next part)
SMILES | HNF4A DNA FP | LANA-H2A inh | Vif TR-FRET | ALR H2O2 inh | RanGTP-Imp inh | B2AR ag | Calb FLC
CC(C)C[C@H](N)c1nnc(S(=O)(=O)Cc2ccc(F)cc2)o1 | -3.5 | -5.2 | -6% | 98* | 0.9 | 0 | -2
COc1ccc(NS(=O)(=O)c2cc(N)ccc2N2CCCCC2)cc1 | 2.2 | -2.6 | -6% | 61 | x | 0 | x
COC(=O)[C@@H]1C[C@@]2(O)[C@@H](O)[C@@H](O)[C@@H](O)C[C@H]2N1Cc1ccc(Cl)cc1 | 3.8 | -4.7 | 14% | 0 | 0.0 | 1 | 3
CCN1CCCC1CNC(=O)C(=O)NCCc1ccc(OC)c(OC)c1 (configuration not stated) | 11 | 2.0 | 1% | 1 | -3.0 | -3 | -7
Cn1c(=O)c2c(nc(NCCO)n2CCCc2ccccc2)n(C)c1=O | -0.6 | -1.2 | x | 6 | 5.8 | 3 | -8
Cc1cc(C)cc(NC(=O)CCC(=O)N2CCSc3ccccc32)c1 | -3.5 | x | -3% | x | -5.7 | 1 | -8
CC(=O)c1ccc(NC(=O)C2(c3ccccc3)CCOCC2)cc1 | -1.0 | -2.9 | 12% | -3 | 1.8 | 0 | -9
COc1ccc(OC)c(N2C(N)=C(C#N)C(c3ccc(OC)c(O)c3)C3=C2CC(C)(C)CC3=O)c1 (configuration not stated) | x | -1.1 | 8% | x | -5.3 | x | -10
CC1CC(=O)Nc2ccccc2N1S(=O)(=O)c1ccc(F)cc1F (configuration not stated) | -1.6 | 3.5 | -4% | 11 | 0.4 | -11 | 3
COc1ccc(-n2c(Cc3ccccc3)nnc2SCc2ccc([N+](=O)[O-])cc2)cc1 | 4.5 | 1.4 | 4% | -4 | x | 4 | 34
COc1ccc(N(CC(=O)N2CCN(c3ccc(Cl)cc3)CC2)S(=O)(=O)c2c(C)noc2C)cc1 | -3.2 | -2.8 | x | 1 | 1.9 | 6 | 1
CC(=O)O[C@@H](C[C@@H](C)C1=C2C[C@H](O)C3[C@@]4(C)CCC(=O)C(C)(C)C4CC[C@]3(C)[C@@]2(C)CC1)[C@H]1OC1(C)C (some centres not stated) | -0.2 | x | -7% | x | x | 8 | x
CC(=O)c1cccc(NC(=O)C2CCN(S(=O)(=O)c3c(C)n[nH]c3C)CC2)c1 | 0.7 | 0.3 | 0% | -5 | 0.2 | 6 | 2
CCOc1ccc(C2C=C(c3ccccc3)Nc3ncnn32)cc1 (configuration not stated) | x | 1.8 | 6% | 8 | -40 | x | 19
CC(C)OC(=O)COc1cc(O)c2c(=O)cc(-c3ccccc3)oc2c1 | -1.0 | -1.8 | -5% | -4 | -0.5 | -7 | -1
CC(=O)Nc1ccc(S(=O)(=O)NCCC(=O)N2CCC(Cc3ccccc3)CC2)cc1 | 1.6 | -0.6 | -8% | x | x | -3 | x
CCOC(=O)c1ccc(Nc2cc(C)nc(-c3ccccc3O)n2)cc1 | -2.6 | 2.4 | u | -2 | 3.3 | 8 | 11
COc1ccc(Cl)cc1NC(=O)C1CCN(C(=O)C2CC(=O)N(c3ccc(C)cc3)C2)CC1 (configuration not stated) | -0.6 | -1.2 | x | -1 | 3.1 | -8 | -2
